Arbovirus inh = blocks arbovirus infection; arbovirus infection cell-based antiviral screen; inhibition, % at 10 µM; actives 0.37% (n = 200,000); AID 1251;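 active = inhibition from about 30%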;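 also: bluetongue infection of BSR cells; cell survival read as ATP light after 72 h; 0% = infected wells without compound and 100% = uninfected wells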
YopH PTP inh = blocks Yersinia enterocolitica YopH tyrosine phosphatase; fluorescence Ex485/Em525; inhibition, %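 (about 10 µM by stock and volumes)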; actives 0.16% (n = 140,000); AID 898;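 active = inhibition of 50% or more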;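 also: controls were vehicle for no effect and minimum signal wells for full effect; inactives centre near -20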
Mtb bLac sens = beta-lactam sensitization of Mtb H37Rv; M. tuberculosis H37Rv growth with meropenem, percent inhibition; hits of this screen are not shown here; actives 0.27% (n = 330,000); AID 434955; inhibition, % at 25 µM;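 active = about 74% or more and at least 40 points above the plate without the antibiotic, then above 30% in a dose series; inconclusive = first-round hits that could not be retested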;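 also: growth measured after seven days incubation then overnight dye step; 0% = bacteria only wells and 100% = bacteria with antibiotic; twin plates without the antibiotic show which effects depend on it; some results filed as inactive read as strong as hits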
RecA splice inh = Mtb RecA intein splicing inhibition | cell-free RecA intein splicing, fluorescence | inhibition, %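 (about 9 µM by stock and volumes)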 | actives 0.75% (n = 290,000); in the data active = inhibition above about 30%; inconclusive = no clear call, values can overlap the other calls;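 also: 0% = vehicle wells and 100% = reference inhibitor control wells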
Target sequence (P9WHJ3 whole entry, looked up, canonical isoform): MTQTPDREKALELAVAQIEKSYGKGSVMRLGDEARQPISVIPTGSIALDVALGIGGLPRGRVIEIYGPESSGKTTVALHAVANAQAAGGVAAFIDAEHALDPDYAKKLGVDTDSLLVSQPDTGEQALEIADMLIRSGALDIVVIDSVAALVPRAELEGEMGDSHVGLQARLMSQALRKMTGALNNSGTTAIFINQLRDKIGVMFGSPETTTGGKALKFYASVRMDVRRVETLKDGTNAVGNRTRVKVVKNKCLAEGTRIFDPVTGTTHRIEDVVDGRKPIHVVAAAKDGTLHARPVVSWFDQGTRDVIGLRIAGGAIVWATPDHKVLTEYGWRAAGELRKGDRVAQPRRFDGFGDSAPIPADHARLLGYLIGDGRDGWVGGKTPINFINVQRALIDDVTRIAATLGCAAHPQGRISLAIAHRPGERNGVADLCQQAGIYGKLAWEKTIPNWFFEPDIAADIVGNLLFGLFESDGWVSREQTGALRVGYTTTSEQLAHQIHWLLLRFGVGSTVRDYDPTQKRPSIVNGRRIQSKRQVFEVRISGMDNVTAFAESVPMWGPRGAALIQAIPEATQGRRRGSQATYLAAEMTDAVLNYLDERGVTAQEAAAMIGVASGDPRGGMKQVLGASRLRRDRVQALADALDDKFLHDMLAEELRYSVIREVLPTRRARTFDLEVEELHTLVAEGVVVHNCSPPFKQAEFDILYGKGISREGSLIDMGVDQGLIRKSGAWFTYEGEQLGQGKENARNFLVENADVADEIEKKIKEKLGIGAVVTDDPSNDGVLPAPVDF
Mtb growth = M. tuberculosis H37Rv growth inhibitors, H37Rv strain (AID 1626); inhibition, % at 10 µM, or IC50 in µM where a hit was titrated; M. tuberculosis H37Rv growth inhibition; higher % means a stronger effect; actives 0.95% (n = 220,000);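 active = confirmed in a dose series; inconclusive = inhibition above 80% but not taken into the dose series; inactive = below 80% or under 30% at every dose of the series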;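 also: bacteria incubated seven days before Alamar blue readout; 0% = bacteria only wells and 100% = bacteria with antibiotic wells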
Arbovirus inh repeat = recorded beside Arbovirus inh, whose call it bears; inhibition, %; measured here: 10K subset replicate screen; many hits read low in the repeat;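 first of two repeat runs on a subset; 0% = infected and 100% = uninfected wells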
The depositor's hits bear a star; ? = inconclusive; · = no result given. The list is partial; count on the stated rates, not on these rows.

SMILES | Arbovirus inh | YopH PTP inh | Mtb bLac sens | RecA splice inh | Mtb growth | others
N#Cc1c(Cn2cncn2)nc(=O)n(-c2ccccc2)c1N | 1 | · | -1 | -3.6 | 2%
CC(/C=N/NC(=O)c1ccc(CN2c3cccc4cccc(c34)S2(=O)=O)cc1)c1ccccc1 (stereo not drawn) | 1 | -12 | 4 | 0.8 | 0%
CC(=O)Nc1ccc(NC(=O)C(C)OC(=O)C(C)SCC(=O)Nc2ccc(C)cc2)cc1 (stereo not drawn) | · | · | -5 | 3.3 | ·
Cc1nnc(NC(=O)CSc2nnc3c(n2)[nH]c2ccc(Br)cc23)s1 | · | · | 1 | -0.9 | ·
COCC(=O)N(c1ccccc1)C(C)C(=O)OC (stereo not drawn) | 4 | · | -1 | 2.5 | -3%
Cc1ccc(-n2ncc3c(NCCCOC(C)C)ncnc32)c(C)c1 | 4 | -29 | -1 | -4.1 | 0%
O=C(Cn1nc(C(=O)O)c2ccccc2c1=O)Nc1ccc2c(c1)C(=O)c1ccccc1C2=O | · | · | 3 | 2.5 | 14%
O=S(=O)(NCc1ccco1)c1ccccc1Br | · | · | -13 | 1.7 | 7%
CCn1cc(C(=O)NCc2ccco2)c(=O)c2cc(S(=O)(=O)N3CCc4ccccc4C3)ccc21 | -5 | 2 | 14 | 8.1 | -3%
CC(=O)Nc1ccc2nc(C3CCCCC3)[nH]c2c1 | -1 | -6 | -9 | 2.1 | -20%
O=C(CCSc1ccc(Cl)cc1)NN=C1CCCCCC1 | -2 | · | -3 | 1.7 | 3%
COc1ccc(-c2n[nH]c(=S)n2/N=C/C=C\c2ccccc2OC)cc1 | -2 | -8 | 5 | -0.2 | -2%
Cc1cccc2sc(NNC(=O)c3ccc(S(=O)(=O)N4CCCC(C)C4)cc3)nc12 (stereo not drawn) | -33 | -24 | -6 | -1.2 | ·
O=C(CCN1CCCCC1c1cccnc1)NCc1ccccc1 (stereo not drawn) | 4 | -19 | 3 | -4.8 | 0%
COc1ccc(CCNC(=O)c2c(O)c3ccccc3n(C)c2=O)cc1 | · | · | 4 | -0.1 | ·
COc1ccc(C2N=C(c3ccccc3)NO2)cc1OC (stereo not drawn) | · | · | 3 | 0.5 | ·
Cc1ccccc1NC(=O)Cc1nnc(SCC(=O)NC2=NCCS2)n1C | · | · | 8 | -3.5 | ·
C#CCNC(=O)C1=C[C@H](c2csc3ccccc23)[C@@H](CCCO)[C@H](OCC)O1 | -1 | · | 5 | -0.5 | 4%
Cc1n[nH]c(C)c1C(=O)CC1(O)C(=O)N(CCc2ccccc2)c2ccc(Br)cc21 (stereo not drawn) | -7 | -6 | -4 | 4.8 | 3%
CCN(CC)C(=O)COc1ccc(/C(C)=N/NC(=O)c2ccccc2Br)cc1 | -1 | · | 4 | -1.0 | -1%
C=CCN1C(c2cccc(C(F)(F)F)c2)=CS/C1=C(/C#N)c1nnc(N2CCOCC2)n1-c1ccccc1 | -14 | -29 | -7 | 1.4 | 2%
CC1(C)C(c2ccccn2)=[N+]([O-])C(C)(C)N1O | 0 | -37 | -4 | -4.8 | -8%
CCn1c2ccccc2c2cc(/C=N/NC(=O)c3ccccc3)ccc21 | -8 | -30 | ? | 1.6 | 4%
CN(C)C(=O)c1cnc(-c2ccccc2)nc1-c1ccccc1 | · | · | -8 | 3.8 | ·
CCOc1ccc(-n2c(O)c(C=Nc3ccc(N4CCOCC4)cc3)c(=O)[nH]c2=O)cc1 | -9 | -49 | 3 | -19 | -5% | Arbovirus inh repeat=-11
COc1ccc(C(=O)N2CCN(CCc3ccccc3)CC2)cc1[N+](=O)[O-] | · | · | 0 | -1.5 | ·
C(=N\N=C\c1ccncc1)/c1ccncc1 | · | · | -17 | 0.6 | ·
CCCNC(=O)c1cc(S(=O)(=O)N2CCCCC2)c[nH]1 | · | · | 3 | 0.2 | ·
COc1ccc(C(=O)NNC(=O)CNC(=O)C2CCCCC2)cc1 | -2 | · | -6 | -0.5 | -3%
NC(CO)c1cn([C@@H](CCC(=O)O)C(=O)N2CCNCC2)nn1 (stereo partly drawn) | 0 | · | -7 | -1.2 | -7%
COc1cccc(/C=N/Nc2ccc(Cl)nn2)c1 | · | · | 0 | -1.2 | ·
CC(=O)c1ccc(NC(=O)Cn2c3ccccc3c3nc(=O)cc(C)n32)cc1 | · | · | -5 | -3.8 | -2%
COc1ccc(-n2c(C)nc3cc(C(=O)O)ccc32)cc1 | 3 | -26 | -9 | -0.7 | -10%
CCCCn1c(N)c(N(CCOC)C(=O)CSc2nnc(C)n2-c2ccc(OC)cc2)c(=O)[nH]c1=O | · | · | -8 | -1.2 | ·
COc1cc(/C=C2/SC(=O)N(Cc3ccccc3Cl)C2=O)ccc1OCc1ccncc1 | -3 | -5 | -8 | -2.6 | 4%
CCOC(=O)c1ccccc1NC(=O)c1ccc2nccnc2c1 | 15 | · | 19 | 3.1 | 18%
COc1ccc(NC(=O)CCS(=O)(=O)c2ccc3c(c2)oc(=O)n3C)cc1 | · | · | -1 | 1.8 | ·
O=C(Nc1ccccc1C(F)(F)F)c1cc(-c2ccccc2O)on1 | 26 | -48 | 6 | 0.2 | 6%
CC(C)(O)C#Cc1ccc(CN2CCC(CO)(CCc3ccccc3)CC2)cc1 | · | · | 2 | 0.6 | ·
COC(=O)c1c(O)cc(=O)n2c1CCCCC2 | 5 | · | 4 | 4.3 | 1%
O=C(Nc1ccc(N2CCN(C(=O)c3ccccc3F)CC2)cc1)c1ncn[nH]1 | -7 | · | -13 | 1.0 | 4%
Cc1ccccc1C(=O)OCCCN=C1NS(=O)(=O)c2ccccc21 | 6 | -17 | 7 | -0.4 | 0%
O=C(NC(=S)Nc1ccc(N2CCOCC2)cc1)c1cccc(Cl)c1 | -11 | -15 | -2 | 0.4 | 3%
Cc1nnc(SCC(=O)Nc2ccc(Oc3ccccc3)cc2)n1N | -11 | -16 | 22 | 0.2 | 4%
CN1CCN(CC(=O)n2c3c(c4ccccc42)CCCC3)CC1 | 11 | -8 | -8 | 0.8 | -5%
O=C(Cn1c2c(sc1=O)C1c3ccccc3OCC1CS2)Nc1ccc(Cl)cc1 (stereo not drawn) | 10 | -18 | 8 | 3.5 | 13%
Cc1noc(C)c1S(=O)(=O)Nc1ccccc1Oc1ccccc1 | · | · | 0 | 5.6 | 14%
Cn1cc(-c2ccccc2C(=O)O)c(=O)c2cc(Cl)ccc21 | · | · | 5 | 0.3 | ·
O=C(NS(=O)(=O)Nc1ccccn1)c1c[nH]c2ccccc12 | · | · | 2 | -1.6 | ·
CC(=O)c1ccc(CC2SC(N)=NC2=O)cc1 (stereo not drawn) | · | · | -8 | 0.2 | ·
(continued)
SMILES | Arbovirus inh | YopH PTP inh | Mtb bLac sens | RecA splice inh | Mtb growth | others
Cc1c(C(=O)O)oc2c1/C(=N\O)CCC2 | 5 | -24 | -4 | -1.4 | -3%
Cc1ccc(CN2CCN(Cc3cnc(N4CCOCC4)s3)CC2CCO)cc1 (stereo not drawn) | -4 | · | 0 | -0.5 | -3%
CCOC(=O)CC1COCCN1C(=O)c1cc(COc2ccc(F)c(F)c2)on1 (stereo not drawn) | · | · | -10 | 4.5 | ·
Cc1sc(Nc2ccc([N+](=O)[O-])cc2)nc1-c1c(C)n(C)n(-c2ccccc2)c1=O | -2 | -9 | 6 | 1.5 | 4%
O=C(CCCn1c(=S)[nH]c2ccsc2c1=O)Nc1ccc2c(c1)OCO2 | -22 | · | -2 | · | -10%
COc1ccc(S(=O)(=O)N2CCCC(C(=O)N3CCN(C)CC3)C2)cc1C (stereo not drawn) | 7 | 0 | -6 | 0.8 | -1%
CC1=C(C(=O)Nc2ccccc2)C(c2ccncc2)C(C#N)=C(SCC(=O)Nc2ccccc2)N1 (stereo not drawn) | 1 | 15 | 3 | · | -12%
O=C(Cc1ccc(Cl)cc1Cl)Nc1cccc(S(=O)(=O)Nc2ccccc2F)c1 | 21 | -18 | 90 | 2.7 | 7%
COc1ccc(OC)c(C(C)NC=O)c1 (stereo not drawn) | 20 | -30 | 1 | -0.8 | -8% | Arbovirus inh repeat=3
Cc1cccc(NC(NC(=O)c2ccccc2[N+](=O)[O-])C(Cl)(Cl)Cl)c1 (stereo not drawn) | -10 | -21 | -7 | 0.6 | 3%

Sorted by molecular weight (smallest number first): 3 of the compounds above
SMILES | Arbovirus inh | YopH PTP inh | Mtb bLac sens | RecA splice inh | Mtb growth | others
Cc1c(C(=O)O)oc2c1/C(=N\O)CCC2 | 5 | -24 | -4 | -1.4 | -3%
O=C(Cc1ccc(Cl)cc1Cl)Nc1cccc(S(=O)(=O)Nc2ccccc2F)c1 | 21 | -18 | 90 | 2.7 | 7%
CC1=C(C(=O)Nc2ccccc2)C(c2ccncc2)C(C#N)=C(SCC(=O)Nc2ccccc2)N1 (stereo not drawn) | 1 | 15 | 3 | · | -12%

Further structures:
SMILES | Arbovirus inh | YopH PTP inh | Mtb bLac sens | RecA splice inh | Mtb growth | others
Cc1cccc(N(C)C(=O)c2cnn(-c3ccccc3)c2C)c1 | · | · | 1 | -2.7 | ·
Cc1cnn(C(=O)c2ccccc2Br)c1 | -3 | -39 | -11 | -0.8 | -1% | Arbovirus inh repeat=0
CC(=O)Nc1cccc(/C(C)=N/NC(=O)c2c(-c3ccccc3Cl)noc2C)c1 | 5 | -32 | -1 | -0.5 | 6%
O=C(Nc1ccccc1O)c1cc2cc(Br)ccc2oc1=O | · | · | 98 | -1.2 | ·
Cc1[nH]c(=O)[nH]c(=O)c1S(=O)(=O)N1CCN(c2ccccc2)CC1 | · | · | -6 | -3.0 | ·
COc1ccccc1NC(=O)C(Cc1ccc(Cl)cc1)c1nn[nH]n1 (stereo not drawn) | 3 | -19 | -10 | · | -4%
c1ccc(SCCN2CCN(c3ccccc3)CC2)cc1 | · | · | -4 | 4.1 | ·
O=C(Nc1cccc2ccccc12)c1ccc([N+](=O)[O-])o1 | · | · | 100 | 3.2 | ·
Cc1ccc(S(=O)(=O)N2CCN(c3nc(C)nc4sc5c(c34)CCC(C)C5)CC2)cc1 (stereo not drawn) | 9 | -24 | · | · | 4%
CC(NC(=O)c1ccc(N2CCNCC2)c([N+](=O)[O-])c1)C12CC3CC(CC(C3)C1)C2 (stereo not drawn) | -32 | · | 2 | 1.1 | 12%
Nc1c(C(=O)NCCN2CCOCC2)c2nc3ccccc3nc2n1-c1ccccc1 | 1 | -24 | 0 | -498 | 7%
O=S(=O)(NCCc1ccccc1)c1ccc(S(=O)(=O)N2CCCCC2)cc1 | -2 | 0 | 3 | 3.7 | -8%
O=C(Cc1cccs1)NNC(=S)NCc1ccc(Cl)cc1 | 8 | -34 | -6 | -1.0 | 0%
CCOC(=O)C1CCN(c2ncnc3c2c(-c2ccccc2)cn3-c2ccccc2)CC1 | -2 | · | 78 | 2.7 | ?
COc1ccc(C2c3c(ncn(CCCO)c3=N)Oc3ccc4ccccc4c32)cc1OC (stereo not drawn) | · | · | 3 | 9.3 | 3%
O=C(Nc1ccc(N2CCN(C(=O)c3ccco3)CC2)cc1)c1cccnc1Cl | -4 | · | 4 | 3.0 | -8%
CN1CCN(C(=O)/C(=C/c2cccnc2)NC(=O)c2cccc(Br)c2)CC1 | · | · | 7 | -2.2 | ·
COc1ccc(-c2oc(NC(=O)c3ccc(C)cc3)c(C#N)c2-c2ccc(OC)cc2)cc1 | 0 | -25 | -2 | -0.5 | 5%
O=C(Cn1c(NCCO)nc2ccccc21)c1cccs1 | 7 | -31 | -1 | 1.3 | -7%
Clc1ccc(-c2nc(Cc3ccccc3)no2)cc1 | 0 | -1 | 2 | 1.2 | 10%

Overlap with the part before: 3 compounds; new compounds follow.
SMILES | Arbovirus inh | YopH PTP inh | Mtb bLac sens | RecA splice inh | Mtb growth | others
COc1ccc(-c2oc(NC(=O)c3ccc(C)cc3)c(C#N)c2-c2ccc(OC)cc2)cc1 | 0 | -25 | -2 | -0.5 | 5%
O=C(Cn1c(NCCO)nc2ccccc21)c1cccs1 | 7 | -31 | -1 | 1.3 | -7%
Clc1ccc(-c2nc(Cc3ccccc3)no2)cc1 | 0 | -1 | 2 | 1.2 | 10%
O=C(CSc1nc(C2CC2)nc2sc3c(c12)CCCC3)NCc1ccco1 | 7 | -22 | -1 | 0.5 | -1%
O=C(Nc1ccc2c(c1)OCCO2)c1ccc(Cl)c(Cl)c1 | · | · | 3 | 1.9 | ·
Cc1cc(C)c(C#N)c(Nc2cccc(C)c2C)n1 | · | · | -3 | -0.6 | ·
CCCCNC(=O)CSc1nc2cc(OC)c(OC)cc2c(=O)n1Cc1ccc(OC)cc1 | -18 | -39 | 1 | 1.7 | -9%
CCO[C@@H]1OC(C(=O)O)=C[C@H](c2ccc3c(c2)OCO3)[C@H]1CCCO | 0 | · | -2 | 0.9 | -3%
Cc1nc2ccccn2c1C(=O)N/N=C/c1ccc([N+](=O)[O-])cc1 | · | · | 0 | -1.4 | -5%
